Beta cell apopt – inhibitors of cytokine-induced beta cell apoptosis, primary screen, luminescence; INS-1E cytokine-induced death, ATP luminescence, 48 h; percent of positive-control rescue, neutral wells zero; 300,000 tested, 0.8% active; protection from apoptosis, % (no concentration beside the values);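 active = all replicates at 75% or more, or half of them and the mean; inconclusive = half reach 75% but not the mean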;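 also: 0% = cytokine-treated negative control wells and 100% = positive control rescue; higher means more ATP so stronger rescue from cytokine killing; wells of about 40 µL received 100 nL stock; the first replicate is given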
MLL AF4-AF9 inh – inhibitors of AF4 peptide binding to AF9, primary screen, biochemical, AlphaScreen, biotin-AF4 peptide, FLAG-AF9, single point | Protein AF-9 (Homo sapiens), P42568 | 350,000 tested, 0.47% active | inhibition, % at 10 µM;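 active = every replicate reaching a set inhibition limit, whatever the replicate mean, cut at about 25% in these data; inconclusive = mean inhibition reaches that limit but some replicates miss it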;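 also: 0% = plate neutral control median and 100% = total signal loss; the record names both 10 and 1 µM as test concentration; the first replicate is given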
Target sequence (P42568 whole entry, looked up): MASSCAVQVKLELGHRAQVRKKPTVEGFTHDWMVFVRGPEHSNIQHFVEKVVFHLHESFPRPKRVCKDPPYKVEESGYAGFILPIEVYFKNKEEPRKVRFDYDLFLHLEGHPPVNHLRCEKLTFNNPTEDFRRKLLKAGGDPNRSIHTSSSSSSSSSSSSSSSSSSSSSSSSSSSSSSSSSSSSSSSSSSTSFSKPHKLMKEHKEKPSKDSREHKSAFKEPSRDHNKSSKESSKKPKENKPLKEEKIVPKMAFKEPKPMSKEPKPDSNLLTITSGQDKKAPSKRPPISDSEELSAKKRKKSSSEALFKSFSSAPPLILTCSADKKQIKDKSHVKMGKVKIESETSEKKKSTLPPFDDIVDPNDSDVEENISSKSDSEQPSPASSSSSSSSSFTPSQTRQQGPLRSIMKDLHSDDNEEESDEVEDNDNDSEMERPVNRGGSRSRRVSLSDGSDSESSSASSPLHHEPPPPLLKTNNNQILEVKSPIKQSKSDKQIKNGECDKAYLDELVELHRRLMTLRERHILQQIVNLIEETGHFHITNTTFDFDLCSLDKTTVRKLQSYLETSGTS
Ecoli growth – E. coli growth inhibition, primary screen, OD600 | 330,000 tested, 0.21% active | OD600 absorbance (test concentration not listed) | Escherichia coli growth, 23 h; active compounds read low;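 active = OD600 absorbance below the run mean of sample wells minus 3.6 SD, in any replicate, cut at about 0.56 in these data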;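 also: stock transfer was 300 nL into about 60 µL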
Ecoli rRNA inh – reduced GFP signal of wild-type E. coli, primary screen, bacterial rRNA inhibitor project, GFP/RFP fluorescence, OD600, single point. E. coli WT GFP vs humanized-ribosome RFP mutants, 24 h; active compounds read low; DMSO median 0, no signal -100. GFP signal change (wild-type ribosome), % (test concentration not listed). 350,000 tested, 1.6% active;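 active = significant combined selectivity score with lowered wild-type GFP, culture density cut under 30%, mutant RFP and density less affected; inactive = any of these conditions unmet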; also: one replicate is shown; some compounds called inactive have numbers as strong as hits
A1 inh – caspase 3/7 activation in MEF A1-2A-BIM cells, primary screen, A1 inhibitor project, cell-based, luminescence, HTS | Caspase-Glo 3/7 luminescence, 3 h; percent of clofoctol response, vehicle zero | caspase activation, % (no concentration beside the values) | 330,000 tested, 0.066% active | AID 2462, 2010;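 active = over half of replicate activation scores above 10%, or exactly half above 10 with the replicate mean above 10; inconclusive = replicate mean below 10 yet half the replicates above 10; inactive = over half of replicates below 10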;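 also: wells of about 30 µL received 50 nL stock; many hits fall short of the cut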
T cruzi repl – inhibitors of intracellular T. cruzi growth, primary screen, luminescence, NIH3T3 host cells; 300,000 tested, 1.4% active; T. cruzi beta-gal in NIH3T3, 90 h; inhibition, % (no concentration beside the values); AID 1885, 2009;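 active = mean inhibition across valid replicates above about 55%, limit read from the data; inconclusive = mean below that limit but half or more replicates reach it; inactive = mean below it, under half of replicates reach it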;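 also: signal also drops with host cell toxicity which is not excluded here; 0% = plate median of DMSO wells and 100% = zero luminescence signal; higher percent means less beta-gal luminescence so fewer parasites; stock transfer was 50 nL into about 50 µL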
UCH37 DUB inh – inhibitors of human UCH37 deubiquitinase, primary screen, biochemical, Ub-AMC cleavage, fluorescence | Ubiquitin carboxyl-terminal hydrolase isozyme L5 (Homo sapiens), Q9Y5K5 | purified proteasome/UCH37 | inhibition, % (concentration not given with the values) | 330,000 tested, 0.33% active;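 active = mean of two replicates above 20%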;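 also: 0% = compound-free wells with enzyme and 100% = wells lacking proteasome; stock transfer was 100 nL into about 20 µL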
Target sequence (Q9Y5K5 whole entry, looked up): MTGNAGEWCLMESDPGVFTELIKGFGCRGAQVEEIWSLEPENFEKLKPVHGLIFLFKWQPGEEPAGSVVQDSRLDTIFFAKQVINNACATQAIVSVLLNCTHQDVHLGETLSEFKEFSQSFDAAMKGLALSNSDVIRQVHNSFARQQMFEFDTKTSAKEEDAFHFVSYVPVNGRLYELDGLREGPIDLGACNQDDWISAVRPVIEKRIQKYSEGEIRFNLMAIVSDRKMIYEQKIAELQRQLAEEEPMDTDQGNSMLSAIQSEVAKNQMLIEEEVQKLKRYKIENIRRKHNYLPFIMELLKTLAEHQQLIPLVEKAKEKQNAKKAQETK
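Assay system: Proteasome-bound UCH37. Buffer or medium: pH 7.4 Tris-HCl (50 mM) with ovalbumin, ATP-MgCl2, DTT. Incubation: 30 min preincubation with enzyme, 25 min cleavage at room temperature. Measured by: fluorescence, ex 355 nm, em 460 nm. Read-out basis: percent inhibition. Control set: wells without proteasome as full block, compound-free enzyme plus substrate as uninhibited.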
FGF22 binding – binders of human FGF22 protein, primary screen, FGF22 synaptogenesis inhibitor project, biophysical, thermal shift, single point; calls only at 9.99 µM; AID 651658, 2012; recombinant FGF22 thermal shift, SYPRO orange fluorescence; percent of sucrose octasulfate shift, DMSO zero; 340,000 tested, 1.5% active;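 active = melting point raised past a set limit in the mean and every replicate; inconclusive = no clear call; three in four hits are not shown here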
Target sequence (Q9HCT0 whole entry, looked up): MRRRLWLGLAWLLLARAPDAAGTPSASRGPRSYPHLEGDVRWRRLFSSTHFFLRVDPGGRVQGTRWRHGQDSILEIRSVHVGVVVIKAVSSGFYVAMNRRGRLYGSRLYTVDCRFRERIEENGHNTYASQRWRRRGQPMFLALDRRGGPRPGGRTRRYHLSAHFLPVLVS
Ecoli rRNA inh OD600 – recorded beside Ecoli rRNA inh, whose call it bears; OD600 change, %; measured here: OD600 growth;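 optical density of the mix in the first replicate; 0 = DMSO median and -100 = no signal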
Ecoli rRNA inh RFP – also measured in Ecoli rRNA inh; calls as there; RFP signal change, %; measured here: RFP humanized mutant strains;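 first replicate; 0 = DMSO median and -100 = no signal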
An asterisk follows results filed as active; i = inactive; ? = inconclusive; . = not tested or not shown; & = joins results of further samples. A portion of the library. The share of hits here may be higher or lower than overall.

| SMILES | Beta cell apopt | MLL AF4-AF9 inh | Ecoli growth | Ecoli rRNA inh | Ecoli rRNA inh OD600 | Ecoli rRNA inh RFP | A1 inh | T cruzi repl | UCH37 DUB inh | FGF22 binding |
| --- | --- | --- | --- | --- | --- | --- | --- | --- | --- | --- |
| CC(C)CC(C(=O)NC1CCCCC1)N(Cc1ccccc1)C(=O)c1snc(C(N)=O)c1N (centres undefined) | 9 | -3.5 | 0.65 | -3 | -1 | -1.7 | 0.5 | -3 | -17 | i |
| COC(=O)c1ccccc1S(=O)(=O)N1CCC(C(=O)OCc2ccc([N+](=O)[O-])cc2)CC1 | . | 1.9 | 0.71 | -10 | -5 | -5.1 | -0.3 | 5 | 7.0 | i |
| CC(=O)c1c(C(C)=O)c(C)n(-c2ccc(C)c(NC(=O)c3ccccc3Cl)c2)c1C | 6 | . | 0.62 | -20 | -31 | 17 | -0.2 | 4 | 1.5 | . |
| COc1ccc(-n2c(O)c(/C=C3\C=Nc4ccccc43)c(=O)[nH]c2=O)cc1 | . | 4.4 | 0.66 | -27 | -53 | -3.5 | . | 2 | 3.7 | i |
| O=C(CCSc1nnc(-c2ccncc2)o1)Nc1cccc2ccccc12 | 5 | . | 0.66 | . | . | . | 0.2 | 18 | 4.3 | . |
| O=C(COC(=O)c1ncc(Cl)c(Cl)c1Cl)NC(=O)NCc1ccccc1 | -10 | -0.3 | 0.66 | 4 | 2 | 0.1 | 0.4 | -10 | -1.4 | i |
| O=C(CCn1c(=O)[nH]c2ccsc2c1=O)NCCc1ccc(Cl)cc1 | . | . | 0.69 | . | . | . | 0.0 | 0 | 4.8 | . |
| CCOC(=O)[C@H]1[C@H]2COc3ccc(Cl)cc3[C@@H]2N2C(=O)CN(Cc3ccc(Cl)cc3)C(=O)[C@@]12C | -4 | 1.0 | . | -4 | -11 | 11 | 0.2 | . | 3.3 | i |
| Cc1cccc(NC(=O)Cn2c(=O)n(C)c3ccccc32)c1 | . | . | 0.71 | . | . | . | -0.9 | 7 | 0.8 | . |
| c1ccc2c(c1)CSc1sccc1C2=C1CCNCC1 | -4 | . | 0.63 | . | . | . | 0.2 | 9 | 7.5 | . |
| Cc1occc1C(=O)N1CCN(C(=O)C2CCCO2)CC1 (centres undefined) | -3 | -65 | 0.71 | 14 | 11 | -0.4 | -0.3 | -18 | 0.2 | i |
| Cc1cccc(NC(=S)Nc2ccccn2)c1C | -4 | . | 0.74 | . | . | . | 1.1 | 8 | -9.8 | . |
| O=C(Cn1ncc2c3ccccc3n(Cc3ccccc3)c2c1=O)NCc1ccco1 | 7 | -0.5 | 0.69 | 6 | 9 | 14 | 0.6 | 1 | -34 | i |
| CCc1nnc(NC(=O)CCC(=O)N2CCN(Cc3cc(Cl)ccc3OC)CC2)s1 | 2 | . | 0.75 | . | . | . | 0.4 | 33 | 3.5 | . |
| CC(=O)Nc1ccc(NC(=O)C(C)OC(=O)CCCN=C2NS(=O)(=O)c3ccccc32)cc1 (centres undefined) | . | 0.6 | 0.62 | 10 | 7 | -3.2 | 0.0 | -3 | 0.8 | i |
| N#Cc1c(N)n(-c2cccc(C(=O)O)c2)c2nc3ccccc3nc12 | -2 | -3.1 | 0.67 | 12 | 8 | -3.8 | 0.1 | -1 | i | i |
| COc1ccc(C(=O)NC(=S)NNC(=O)COc2ccccc2)cc1 | 2 | -10 | 0.61 | -6 | -14 | -4.9 | -0.3 | -9 | 1.0 | i |
| CC1=CC(C)(C)Nc2ccccc21 | -2&32 | . | 0.66&0.75 | 0 | -2 | -0.3 | 0.8&0.4 | 75* | -27&-23 | i |
| CCOC(=O)c1cc2c(=O)n3ccccc3nc2n(C(C)C)c1=NC(=O)c1c(-c2c(F)cccc2Cl)noc1C | 5 | . | 0.73 | . | . | . | -1.3 | 58* | -65 | . |
| CN(C)CCCN1C(=O)c2oc3ccc(F)cc3c(=O)c2C1c1cccnc1 (centres undefined) | -3 | 10 | 0.71 | 1 | -6 | 0.5 | -0.2 | -14 | 0.3 | i |
| CC(=O)N1CCC(N(CCCOC(C)C)C(=O)Nc2ccc(C)c(C)c2)CC1 | 4 | . | 0.72 | . | . | . | 0.1 | 14 | 1.9 | . |
| O=C(CN(Cc1cccs1)C(=O)CCC(=O)Nc1nccs1)NCc1ccccc1 | -4 | -0.1 | 0.67 | 12 | 16 | -5.4 | 0.5 | -3 | 3.4 | i |
| Cc1cc(OCC(=O)NCc2cccnc2)c2c(C)cc(=O)oc2c1 | 0 | 2.0 | 0.65 | 3 | 0 | -0.3 | 0.6 | -5 | -148 | i |
| O=S(=O)(NCC1CC1)c1cc(Cl)cc(Cl)c1 | -1 | -2.4 | 0.64 | 4 | 10 | 0.2 | 0.6 | -2 | 5.9 | i |
| CC(C)NC(=O)CSc1nncn1-c1ccccc1 | -3 | . | 0.72 | . | . | . | 0.5 | -7 | 3.8 | . |
| COc1cc(CN2CCC(C(=O)N3CCN(c4ccccc4F)CC3)CC2)cc(OC)c1O | -2 | . | 0.68 | . | . | . | . | 1 | 0.8 | . |
| CCOc1cc(C2C(C#N)=C(N)OC3CCCC(=O)C32)ccc1OCCN1CCOCC1 (centres undefined) | -4 | . | 0.75 | . | . | . | -0.5 | 1 | 6.5 | . |
| CC(C)(C)OC(=O)N1CCC(NC(=O)c2nc[nH]c2C(=O)NCc2ccccc2)CC1 | 12 | 1.3 | 0.65 | 1 | -10 | -2.4 | 1.8 | . | -0.1 | i |
| Cc1nc(N2CCN(S(=O)(=O)c3ccccc3)CC2)c2cc(-c3ccccc3)sc2n1 | 16 | . | . | . | . | . | 0.2 | 36 | -16 | . |
| CC(/C=C1\SC(=S)N(CCC(=O)Nc2nc(C)cs2)C1=O)=C\c1ccccc1 | 4 | 2.8 | 0.71 | -1 | 2 | 7.4 | 0.0 | 15 | 6.0 | i |
| O=C(CSc1cccc2cccc(Cl)c12)OCC(=O)N1CCN(C(=O)c2ccco2)CC1 | -4 | . | 0.67 | . | . | . | -0.5 | -12 | 5.6 | . |
| O=C(CCNS(=O)(=O)c1ccccc1)N1CCCCCC1 | -1 | -11 | 0.64 | 7 | 9 | 0.1 | -0.4 | 1 | -0.5 | i |
| O=C(COC(=O)c1ccc(Cl)cc1)NC(=O)NC1CCCC1 | . | -15 | 0.68 | -2 | -1 | -1.1 | . | . | 2.6 | i |
| Cc1ccccc1NC1=C(Cl)C(=O)OC1OC(=O)c1ccccc1C (centres undefined) | -5 | 0.4 | 0.71 | -42 | -57 | -9.7 | -0.3 | -1 | 3.5 | i |
| CC(C)N(Cc1ccccc1)C(=O)c1cccs1 | . | 0.4 | 0.67 | -1 | -8 | 0.9 | 0.6 | -16 | 1.0 | i |
| O=C(O)c1ccc(CN(c2ccccc2)S(=O)(=O)c2ccccc2)cc1 | -6 | 4.1 | 0.67 | -18 | -10 | -2.2 | -0.1 | -11 | 1.6 | i |
| O=S(=O)(NCCSc1nnc(-c2ccco2)n1-c1ccccc1)c1ccccc1 | -11 | . | 0.79 | . | . | . | -0.2 | 7 | 1.8 | . |
| N#Cc1ccccc1S(=O)(=O)N1CCN(C(=O)CCc2ccccc2)CC1 | -3 | -7.1 | 0.69 | 2 | 2 | -0.2 | -0.6 | . | -1.6 | i |
| CCc1ccc(NC(=O)COC(=O)CCC2CCCC2)cc1 | -7 | -2.7 | 0.63 | -4 | -23 | -1.2 | 0.3 | . | 3.5 | i |
| CCOC(=O)c1cc(CC)sc1NC(=O)c1cc(OC)c(OC)c(OC)c1 | 7 | . | 0.78 | -5 | -8 | -4.9 | 0.0 | 12 | -75 | . |
| Cc1c(C(=O)OC(C)C)sc2nc[nH]c(=O)c12 | 4 | . | 0.65 | . | . | . | -0.3 | 5 | -3.7 | . |
| COc1cccc(Cn2cccc(NC(=O)Nc3ccc(C#N)cc3)c2=O)c1 | -1 | . | 0.71 | . | . | . | -1.8 | 27 | -20 | . |
| C/C(=N\NC(=S)NCCc1ccccc1)c1ccc(O)cc1O | 18 | 4.0 | . | -10 | -31 | 3.9 | -0.1 | 25 | . | i |
| COc1ccc(N(CC(=O)NCCSCc2ccco2)S(=O)(=O)c2ccccc2)cc1 | 5 | -0.2 | 0.66 | -29 | -46 | 7.9 | -0.2 | 5 | 3.0 | . |
| CCOC(=O)Cc1csc(N/N=C\c2ccc(N(C)C)cc2)n1 | 0 | 7.3 | . | 3 | 11 | 3.2 | -1.2 | 16 | . | i |
| CC(C)(C)C(=O)Nc1c(Cl)cccc1OC(F)(F)F | -5 | -1.9 | 0.65 | 9 | 2 | -1.6 | 0.9 | -2 | 0.9 | i |
| CCCc1cc(=O)oc2c3c(cc(OCC(=O)NCCCn4ccnc4)c12)OC(C)(C)CC3 | -3 | 8.1 | 0.74 | . | . | . | -0.4 | 49 | -464 | i |
| COc1cc2c(cc1OC)C(C)N(C(=O)c1ccc(Cl)c(S(=O)(=O)N3CCCCC3)c1)CC2 (centres undefined) | 8 | 5.7 | 0.71 | -27 | -28 | 0.1 | 0.4 | 17 | 5.7 | i |
| COc1ccc(C)cc1S(=O)(=O)Nc1cc2c3c(c1)CCN3C(=O)CC2 | 3 | 0.0 | 0.72 | 10 | 7 | 1.1 | 0.0 | 13 | 4.9 | i |
| c1cnc2ccc(C(c3nnnn3C3CCCC3)N3CCN4CCCC4C3)cc2c1 (centres undefined) | -5 | . | 0.72 | . | . | . | 0.0 | -1 | -0.1 | . |

Additional results
| SMILES | Beta cell apopt | MLL AF4-AF9 inh | Ecoli growth | Ecoli rRNA inh | Ecoli rRNA inh OD600 | Ecoli rRNA inh RFP | A1 inh | T cruzi repl | UCH37 DUB inh | FGF22 binding |
| --- | --- | --- | --- | --- | --- | --- | --- | --- | --- | --- |
| CCn1nnnc1NC(=O)c1ccc2ccccc2c1 | 1 | -1.4 | 0.69 | 16 | 10 | 0.2 | -0.4 | -3 | 1.1 | i |
| CCn1c(COc2ccccc2C)nnc1SCC(=O)O | -5 | . | 0.68 | . | . | . | 1.6 | -11 | 1.7 | . |
| CCOc1ccc2nc(N(CCCN(C)C)C(=O)c3ccc(C(=O)c4ccccc4)cc3)sc2c1 | 7 | 22 | 0.67 | -52 | -81 | -18 | -2.0 | 35 | 1.5 | i |
| Cn1ncc(Cl)c1C(=O)N/N=C/c1ccccn1 | -5 | -2.3 | . | 13 | -2 | -5.0 | 0.1 | 6 | . | i |
| Cc1ccc(CN2CCC(c3cc(-c4cccs4)n[nH]3)CC2)cc1 | -5 | 4.9 | . | -22 | -22 | -4.9 | -0.5 | ? | . | i |
